HTT prom inh – HTT promoter inhibition; Potency, µM (titrated, usually from 57.5 µM), for the others: at the top dose activity change, negative = inhibition, actives largely listed as inhibitors; AID 1508623; actives 0.93% (n = 48,000); HEK293 HTT promoter firefly luciferase reporter (activity 0% = vehicle and -100% = no light), 24 h; active = well fitted inhibition curve with a large enough effect; inconclusive = small, poorly fitted or top-dose-only effect; inactive = no such curve, though single readings can be large or run the other way; also: nearly all actives have a fitted effect of over 50% in size
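Firefly luciferase readout (Dual-Glo, 10 min RT) after 24 h, 37 °C compound exposure (final up to 57.5 uM) of HEK293 reporter cells cultured 24 h beforehand; PTC124 at 50 uM final as control inhibitor; activity scaled vehicle 0%, zero RLU -100%.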
PMP22 txn – modulators of PMP22 gene transcription in S16 Schwann cells. S16 Pmp22-F2sN Schwann cells (luciferase reporters placed in the Pmp22 gene), FLuc/NLuc coincidence luminescence, 24 h. Potency, µM (series often up to 57.5 µM), inactives show top-dose activity change, negative = inhibition, hits mostly inhibitors. actives 2% (n = 43,000); active = clear falling dose curves in both reporters; inconclusive = both reporters move, but less clearly or upward; inactive = either reporter flat; the % is the NLuc reporter signal; also: % is scaled to controls: 0 for no effect and ±100 for the full control effect; some results filed as inactive show a strong effect at the top dose
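Luminescent read-out of sequential FLuc and NLuc signals from a reporter embedded in the Pmp22 3' UTR of S16 Schwann cells, taken after 24 h compound exposure at 37C; compounds reducing both signals score as inhibitors of expression.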
Active calls of the source: *; ? = inconclusive; . = not tested or not shown; [ ] = another dose, or the depositor's remark. Potency is read from the fitted curve at half-maximal effect. The order is random (roughly 2.4% active in at least one column).

mol	HTT prom inh	PMP22 txn
CCCCCCCCCCCCCCCCCCNC(=O)OC1CCN(C(=O)OC[C@H](COC(=O)N(Cc2cccc[n+]2CC)C(=O)c2ccccc2OC)OC)CC1	?	.
COC(=O)c1ccc(OCC2c3cc(OC)c(OC)cc3CCN2C(=O)c2ccccc2C)cc1 (stereo not drawn)	-28%	?
CCCNC(=O)NS(=O)(=O)c1ccc(Cl)cc1	12%	.
Cn1cc(CCC(=O)NCc2ccc(Cl)cc2)c2ccccc21	-25%	-3%
O=C(CCC1N=C2c3ccccc3N=C(SCc3ccccc3Cl)N2C1=O)N1CCN(c2ccccc2)CC1 (stereo not drawn)	-28%	?
CCc1nc(-c2cc(S(=O)(=O)N3CCN(c4ccc(F)cc4)CC3)ccc2OC)no1	-20%	-10%
Cc1c(-c2ccc(Cl)cc2)c(=O)oc2c(CN3CCN(C)CC3)c(O)ccc12	-13%	?
COc1ccc(NC(=O)CSc2nc3c(c(=O)[nH]2)CCC3)cc1	-11%	0%
COC(=O)c1ccc2c(c1)N(CC(=O)Nc1ccc(C)c(C)c1)C(=O)c1ccccc1S2	-19%	0%
COc1cc(Cl)c(C)cc1NC(=O)CCn1cnc2onc(-c3ccc(F)cc3)c2c1=O	-2%	-24%
Cc1ccc(-c2nc(C(=O)Nc3cccc(C#N)c3)c3n2CCCCC3)cc1	?	-22%
COc1ccc(N(CC(=O)Nc2cccc(Cl)c2)S(=O)(=O)c2c(C)[nH]c(=O)[nH]c2=O)cc1	-15%	4%
Cc1ccc(C)c(NC(=O)Cn2nnc(C(=O)NCCc3ccccc3)c2N)c1	-20%	-19%
COc1ccc(-n2ncc3c(N4CCN(c5cccc(C)c5)C(C)C4)ncnc32)cc1 (stereo not drawn)	?	-39%
Cc1sc(NC(=O)C2c3ccccc3Oc3ccccc32)c(C(=O)OC(C)C)c1C	-6%	-19%
COc1ccc(NC(=O)CC2NCCNC2=O)c(OC)c1 (stereo not drawn)	-19%	8%
Cc1ccc(CN2CCSc3ccc(C(=O)NCc4ccc(OC(C)C)cc4)cc32)cc1	?	-24%
Clc1cccc(-n2ncc3c(N4CCC(Cc5ccccc5)CC4)ncnc32)c1	-15%	0%
COc1ccc(-c2cc(C(=O)Oc3ccc(C)c(C)c3)c3ccccc3n2)cc1	8%	-19%
COc1ccc(S(=O)(=O)N2CCN(c3ccccc3OC)CC2)cc1	-25%	?
O=C(c1ccc(F)cc1)n1nc(-c2cccnc2)nc1NCc1ccc(F)cc1	-29%	-7%
O=C(Oc1ccccc1F)c1nc(SCc2ccccc2F)ncc1Cl	-6%	10%
Cc1ccc(C)c(NC(=O)n2ncc3cc(Cl)ccc32)c1	20%	-14%
O=C(NC1CC(=O)N(c2ccccc2)C1)c1cc2ccccc2o1 (stereo not drawn)	-23%	-20%
CCC(=O)Oc1cc(C(C)(C)C)cc2cc(-c3nc(-c4ccc(OC)cc4OC)no3)c(=O)oc12	-1%	?

Exported as labelled records: 2 of the compounds above.
smiles: O=C(Oc1ccccc1F)c1nc(SCc2ccccc2F)ncc1Cl
  HTT prom inh = -6%
  PMP22 txn = 10%
smiles: COc1ccc(-n2ncc3c(N4CCN(c5cccc(C)c5)C(C)C4)ncnc32)cc1 (stereo not drawn)
  HTT prom inh = ?
  PMP22 txn = -39%

New compounds follow
mol	HTT prom inh	PMP22 txn
Cc1ccc(-c2cc(-c3coc4ccccc4c3=O)c3c(n2)-c2cc(Cl)ccc2OC3)cc1	-5%	-5%
COC1(C(F)(F)F)NC(=O)N(c2ccc(F)cc2)C1=O (stereo not drawn)	-24%[11.5 µM]	16%
CCOCCCNC(=O)c1cc2c(-c3ccc(OC)c(OC)c3)nn(C)c2s1	-6%	?
CCOC(=O)c1c(S(=O)(=O)N2CCCC(C(=O)NCc3ccccc3Cl)C2)c(C)n(C)c1C (stereo not drawn)	-18%	0%
CSc1nc(NCCOC(C)=O)c(C#N)c(-c2ccc(C(C)(C)C)cc2)n1	?	?
COc1ccccc1N1CCN(C(=O)c2nc(-c3ccc(C)cc3)n3c2CCCCC3)CC1	-17%	-11%
Cc1ccc(OCc2nc(-c3ccc(C(=O)N4CCN(c5ccc(Cl)cc5)CC4)cc3)oc2C)cc1	-23%	-16%
COc1cccc(CNC(=O)C(NS(=O)(=O)c2ccc3nc(C)sc3c2)C(C)C)c1 (stereo not drawn)	-3%	2%
Cc1ccc(OCC(=O)Nc2cc(-c3nc4ccccc4[nH]3)ccc2C)c(C)c1	-6%	-28%
CCn1cc(S(=O)(=O)c2ccccc2)c(=O)c2cc(F)c(N3CCCC3)cc21	-23%	?
Cc1cccc(C)c1NC(=O)CCCN1C(=O)CCn2nc(-c3cn(C)c4ccccc34)cc21	4%	-14%
CCCNC(=O)c1ccc(Cn2c(=O)c3cccn3c3cccnc32)cc1	-11%	?
Cc1cccc(C)c1NC(=O)c1nc(S(C)(=O)=O)ncc1N(Cc1ccc(C(C)(C)C)cc1)Cc1ccco1	-33%	-9%
COc1ccc2c(Sc3ccc(C)cc3)c(C(=O)NCCc3ccccc3)[nH]c2c1	13%	?
Cc1cccc(C)c1NC(=O)Cn1c(=O)n(Cc2ccccc2)c(=O)c2c(C)c(C(=O)N(C)C)sc21	-13%	-18%
O=C(Cn1c2ncccc2c(=O)n1-c1ccccc1)NCc1ccccc1Cl	-5%	-1%
O=C(O)/C=C/c1ccc(Cn2ccnc2)cc1	-8%	.
Cc1ccc(NS(=O)(=O)c2ccc3[nH]c4c(c3c2)CCCCCC4)cc1Cl	?	?
O=C(c1ccccc1)c1ccccc1	15%	.
CCOc1ccc(-c2nnc(SCC(=O)Nc3cccc(OC)c3)nc2-c2ccc(OCC)cc2)cc1	-13%	?
COc1ccccc1CNC(=O)c1ccc(CS(=O)c2ccccc2Cl)o1 (stereo not drawn)	?	-45%
COC(=O)C(CCSC)NC(=O)c1cc2c(n(-c3ccc(OC)cc3)c1=O)CC(C)(C)CC2=O (stereo not drawn)	-10%	-4%
O=C(CCCN1CC=C(n2c(=O)[nH]c3ccccc32)CC1)c1ccc(F)cc1	?	.
COc1ccc2nc(NC(=O)c3cc(=O)c4cc(C)c(C)cc4o3)sc2c1	-24%	-11%
Cc1ccc(C)c(NC(=O)Cn2c(=O)n(CC(=O)NCCc3ccccc3)c(=O)c3ccccc32)c1	-6%	-33%
COc1ccc(-c2cc(C(F)(F)F)nc(SCCC(=O)Nc3ccc(F)cc3F)n2)cc1	-13%	-11%
COc1cccc(NC(=O)CSc2nc(=O)n(Cc3cccnc3)c3c2CCC3)c1	0%	-15%
COc1cc(C(=O)N(Cc2ccc(C(C)C)cc2)C2CCS(=O)(=O)C2)cc(OC)c1OC (stereo not drawn)	-12%	-22%
O=S(=O)(NCC(c1ccccc1)N1CCc2ccccc21)c1ccc(Cl)cc1 (stereo not drawn)	?	?
Cc1ccc(-n2c(SCc3cccc(F)c3)nc3[nH]ncc3c2=O)cc1C	?	?
O=C(O)Cc1sc(Nc2ccc(C(=O)O)cc2)nc1-c1ccccc1	48%[activator]	-13%
O=C(Nc1ccc(F)cc1Cl)C1CCN(c2ncnc3c2nc2n3CCCCC2)CC1	-12%	17µM*
CCCCNC(=O)C1CCCN(c2nnc(C)c3c(C)n(-c4ccc(Cl)cc4)nc23)C1 (stereo not drawn)	-20%	?
CC(=O)Nc1cccc(NC(=O)Cn2cnc3c2c(=O)n(C)c(=O)n3C)c1	-2%	-2%
COCCCNc1oc(/C=C/c2cc(OC)c(OC)c(OC)c2)nc1C#N	10%	5%
COCCn1c(C)cc(O)c(C(c2ccccc2Cl)N2CCCCC2)c1=O (stereo not drawn)	-13%	33%
CCOC(=O)C1CCCN(c2c(C(=O)c3ccc(OCC)cc3)cnc3ccccc23)C1 (stereo not drawn)	-36%	-30%
CCOC(=O)c1ccc(Nc2c(-c3ccc(O)cc3)nc3nc[nH]n23)cc1	-11%	-28%
Cc1ccc(S(=O)(=O)n2nc(-c3ccccc3)nc2NCc2ccc(Cl)cc2)cc1	-11%	-1%
Cc1ccc2c(c1)-c1ncc(C(=O)c3cc(Br)ccc3O)cc1CO2	-8%	0%
Cc1ccc(Cn2c(=O)n(Cc3ccco3)c(=O)c3oc4ccccc4c32)cc1	-5%	-21%
CCc1ccc(-n2nc(C)c3c(C)cc(=O)n(CC(=O)N4CCCc5ccccc54)c32)cc1	-4%	-7%
Cc1ccc(S(=O)(=O)c2nc(S(=O)(=O)c3ccccc3)sc2NCCCOC(C)C)cc1	-26%	?
Cc1c(Cn2c(C)nc3c(C(=O)O)cc(N4CCOCC4)cc32)cccc1C(F)(F)F	-14%	.
CCc1ccc(-n2nc(C)c3c(C(=O)Nc4ccc(Cl)cc4)cc(C)nc32)cc1	-12%	-1%
CCCCn1c(CNC(=O)c2ccc(OC)cc2)nnc1SCC(=O)Nc1ccc(OC)cc1	-21%	-3%
CCCCN(CCCNC(=O)c1cc(Nc2ccc(OC)c(OC)c2)nc2ccccc12)Cc1ccccc1	-2%	?
CSc1ncc(C(=O)NCc2ccccc2)c(-c2ccccc2)n1	-6%	3%
Cc1ccc(/C=C/c2onc(C)c2S(=O)(=O)N2CCC(C(=O)Nc3ccccc3C(F)(F)F)CC2)cc1	-6%	-9%
CCCCOc1ccc(C2=NC(c3ccccc3)=Nc3ccc(OC)cc3N2)cc1	15%	-35%

Carrying on:
mol	HTT prom inh	PMP22 txn
CC(C)CNS(=O)(=O)c1ccc(N2CCCCS2(=O)=O)cc1	?	10%
COc1ccc(NC(=O)c2c(NCc3ccc(C)o3)sc3c2CCC(C)C3)c(OC)c1 (stereo not drawn)	?	?
CN(C)c1ccc(NC(=O)Cn2nnc3sc4c(c3c2=O)CCC(C(C)(C)C)C4)cc1 (stereo not drawn)	2%	-2%
CCCCCCCCCCCCCCCC(=O)NCCO	-1%	.
CCOc1cc(C(=O)Nc2ccc(-c3nc4ccccc4s3)cc2Cl)cc(OCC)c1OCC	32%[activator]	-38%
COc1cccc(NC(=O)Cn2c(=O)n(Cc3ccc4c(c3)OCO4)c(=O)c3oc4ccccc4c32)c1	0%	-11%
Cc1ccc(OC(C)C(=O)N2CCN(CCc3ccccn3)CC2)cc1C (stereo not drawn)	-11%	-5%
CC1CCN(C(=O)Cn2c(=O)n(-c3ccc(Cl)cc3)c(=O)c3c4c(sc32)CCC4)CC1	17%	-10%
CCCOc1cccc(C(=O)Nc2ccc(-c3cc4ccccc4oc3=O)c(C)c2)c1	?	?
CN(CC(=O)Nc1ccc(F)cc1F)S(=O)(=O)c1cccc2nsnc12	-15%	-16%
CN1CCc2nc3sc(C(=O)Nc4ccccc4OC(F)(F)F)c(N)c3cc2C1	?	?
COc1cc2c(Nc3ccc(NC(=O)c4ccccc4)cc3)ncnc2cc1OCCCN1CCOCC1	5%	.
COc1ccc(Cl)cc1NC(=O)CCCS(=O)(=O)c1nc(-c2ccc(OC)c(OC)c2)cc(C(F)(F)F)n1	?	5µM*
COc1ccc(CCNC(=O)c2ccc3c(c2)nc(C)n3-c2ccc(Br)cc2)cc1OC	-26%	-174%
COc1ccc(CCNC(=O)CCn2c(=O)c3cccn3c3ccc(F)cc32)c(OC)c1OC	3%	?
COc1ccc(-c2nc3sc(CCNC(=O)C(=O)Nc4ccc(C)c(C)c4)c(C)n3n2)cc1	-34%	0%
O=C(c1ccc2c(c1)N(Cc1cccc(F)c1)C(=O)c1ccccc1S2)N1CCCC1	9%	-11%
CCCn1c2ccccc2c2cnn(CC(=O)Nc3cc(C)c(Cl)cc3OC)c(=O)c21	-10%	-65%
Cc1cccc(N2CCN(C(=O)c3nn(C)c4c3CSc3ccccc3-4)CC2C)c1 (stereo not drawn)	-22%	-14%
COC(=O)c1cc2oc(C)cc2n1CC(=O)Nc1ccc(C(C)C)cc1	-28%	-3%
COc1cc2ncnc(Nc3cccc(Br)c3)c2cc1OC	-21%	.
CCCCN(CC)CCCNC(=O)c1cn(CC(C)C)c(=O)c2c1c1ccccc1n2C	-17%	?
COc1ccc(OC)c(CCNC(=O)c2cc3c(-c4ccccc4F)nn(C)c3s2)c1	?	?

As entered above.
COc1cc2ncnc(Nc3cccc(Br)c3)c2cc1OC @ HTT prom inh = -21%
Cc1cccc(C)c1NC(=O)CCCN1C(=O)CCn2nc(-c3cn(C)c4ccccc34)cc21 @ PMP22 txn = -14%
CCCCN(CC)CCCNC(=O)c1cn(CC(C)C)c(=O)c2c1c1ccccc1n2C @ HTT prom inh = -17%

High-throughput results (PubChem)
